SARS PLP yeast = blocks SARS-CoV papain-like protease in a yeast assay. S. cerevisiae expressing SARS-CoV PLpro, growth rescue; control for the full effect not named in the record. 0.19% of 330,000 active. AID 485353. Potency, µM (doses to about 32.9 µM), inactives show top-dose activity, positive = growth rescue; note: 0% is about no effect; nearly all actives have a fitted effect of over 55% in size; growth read by luminescence after 48 h
Cruzain inh Det = inhibitors of Trypanosoma cruzi cruzain with detergent; P25779; purified cruzain, Z-FR-AMC fluorescence, 0.01% Triton; Potency, µM, without a hit: max response, negative = inhibition, most hits filed as inhibitors; 0.43% of 200,000 active; active = well fitted curve in the direction sought with a large enough effect; inconclusive = small, poorly fitted or top-dose-only effect, or another doubt; inactive = no such curve, though single readings can be large; an effect the other way counts as inactive or inconclusive;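 note: plate controls were neutral wells for no effect and buffer without enzyme for full effect; nearly all actives have a fitted effect of over 40% in size; top concentration of the series not given in the record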
Target sequence (P25779 123-467 limits assumed): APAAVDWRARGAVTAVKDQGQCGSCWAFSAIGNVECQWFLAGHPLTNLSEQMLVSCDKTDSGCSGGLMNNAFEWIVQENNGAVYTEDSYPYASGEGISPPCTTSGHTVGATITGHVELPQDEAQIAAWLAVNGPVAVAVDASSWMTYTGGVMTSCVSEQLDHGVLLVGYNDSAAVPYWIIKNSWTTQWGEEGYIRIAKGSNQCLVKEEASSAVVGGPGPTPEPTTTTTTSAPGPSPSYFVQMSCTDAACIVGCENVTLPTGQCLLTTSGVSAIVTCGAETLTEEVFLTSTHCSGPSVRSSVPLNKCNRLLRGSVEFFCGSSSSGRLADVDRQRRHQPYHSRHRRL
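Cruzain (1.5 nM) preincubated 15 min at RT with compound in 100 mM sodium acetate pH 5.5, 5 mM DTT, 0.01% Triton X-100. Reaction started with 2 uM Z-FR-AMC; AMC fluorescence (ex 360/em 450 nm) change over 60 s gave rate.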
Cruzain inh noDet = inhibitors of Trypanosoma cruzi cruzain without detergent | P25779 | Potency, µM, inactives show max response, negative = inhibition, hits mostly inhibitors | 2.3% of 200,000 active | purified cruzain, Z-FR-AMC fluorescence, no detergent; active = well fitted curve in the direction sought with a large enough effect; inconclusive = small, poorly fitted or top-dose-only effect, or another doubt; inactive = no such curve, though single readings can be large; an effect the other way counts as inactive or inconclusive;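 note: plate controls were enzyme without inhibitor for no effect and buffer without enzyme for full effect; nearly all actives have a fitted effect of over 40% in size; top concentration of the series not given in the record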
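Purified cruzain at 1.5 nM, pre-incubated 15 min with compound at room temperature in 100 mM sodium acetate pH 5.5, 5 mM DTT, 0.00005% Triton X-100. Reaction started with 2 uM Z-FR-AMC; AMC fluorescence increase over 60 s gives rate.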
StopGo reporter = FMDV 2A StopGo reporter, luciferase signal; Potency, µM (highest dose often 57.9 µM), inactives show at the top dose signal change, negative = less light; 1.2% of 410,000 active; human cells with a luciferase reporter of 2A StopGo recoding; control for the full effect not named in the record; active = well fitted falling curve with a large enough effect; inconclusive = small, poorly fitted or top-dose-only effect; inactive = no such curve, though single readings can be large or run the other way; tested in HEK293T cells; note: % is set by controls: 0 for no effect and ±100 for the full control effect; nearly all actives have a fitted effect of over 45% in size; luciferase light after 4 h
LASV entry inh = inhibitors of Lassa virus binding or cell entry. Lassa virus pseudotype entry inhibition, cell reporter; control for the full effect not named in the record. Potency, µM (titrated, usually from 37.9 µM), for the others: at the top dose activity change, negative = inhibition, hits mostly inhibitors. 1.2% of 300,000 active. AID 540256; active means well fitted inhibition curve with a large enough effect; inconclusive means small, poorly fitted or top-dose-only effect, or effect the other way; inactive means flat fitted curve, though single readings scatter; tested in HEK293 cells; note: % is set by controls: 0 for no effect and ±100 for the full control effect; nearly all actives have a fitted effect of over 50% in size; luciferase read-out
NS1 function inh = inhibitors of influenza NS1 protein function; S. cerevisiae slowed by influenza A NS1, growth recovery by OD600; AID 2326; Potency, µM (highest dose often 46.1 µM), for the others: at the highest dose activity, positive = more growth; 0.4% of 270,000 active; note: actives are rising curves; nearly all actives have a fitted effect of over 50% in size
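S. cerevisiae expressing influenza A NS1, grown in glucose, washed, then diluted 1:100 into pH 6.0 -URA galactose medium with 23 nl compound. Growth recovery read as OD600; NS1-free strain serves as control.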
Marburg entry inh = Marburg virus entry inhibition; Marburg virus pseudotyped entry inhibition, cell reporter; control for the full effect not named in the record; about a third of the inactives were read at about 46 µM; Potency, µM (top dose mostly 37.8 µM), without a hit: top-dose activity change, negative = inhibition, actives largely listed as inhibitors; 1.8% of 300,000 active; AID 540276; active = well fitted inhibition curve with a large enough effect; inconclusive = small, poorly fitted or top-dose-only effect, or effect the other way; inactive = flat fitted curve, though single readings scatter; tested in HEK293 cells; about a fifth of its hits are not listed in these tables; note: % is set by controls: 0 for no effect and ±100 for the full control effect; luciferase read-out
RE007 growth inh = less growth of the S. pombe RE007 Vpr strain; S. pombe RE007 Vpr strain, BacTiter-Glo ATP luminescence, 24 h; control for the full effect not named in the record; Potency, µM (titrated, usually from 92.2 µM), without a hit: top-dose activity change, negative = less growth; 0.21% of 360,000 active; AID 651644; active = well fitted falling curve with a large enough effect; inconclusive = small, poorly fitted or top-dose-only effect; inactive = no such curve, though single readings can be large or run the other way;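 note: % is set by controls: 0 for no effect and ±100 for the full control effect; nearly all actives have a fitted effect of over 50% in size; the assay follows cell death caused by Vpr and the record does not say whether a fall means rescue or toxicity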
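Fission yeast strain RE007, carrying one chromosomally integrated HIV-1 vpr copy, was seeded at OD 0.01 in PMG+AL medium with 23 nL pinned compound. After 24 h at 30 °C and 99% humidity, viability was read by BacTiter-Glo luminescence.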
* marks the source's active call; other numbers are inactive results; ? = inconclusive; . = not tested or not shown; & = joins results of further samples; [ ] = remark or other dose. Unless noted, calls come from the whole dose curve; as a rule, active means well fitted rising curve with a large enough effect; inconclusive means small, poorly fitted or top-dose-only effect; inactive means no such curve, though single readings can be large or run the other way. Potency is the fitted concentration of half-maximal effect.

SMILES | SARS PLP yeast | Cruzain inh Det | Cruzain inh noDet | StopGo reporter | LASV entry inh | NS1 function inh | Marburg entry inh | RE007 growth inh
Cc1ccc(S(=O)(=O)N(C)c2ccc(OC(=O)c3ccc(N4CCCC4=O)cc3)cc2)cc1 | 1.3% | . | . | -18.6% | -3.1% | 10.1% | -1.6% | 9.8%
Cc1ccc(-c2[nH]c3ccccc3c2SCCNC(=O)c2ccc(S(=O)(=O)N(C)C)cc2)cc1 | . | 1.6% | ? | -23.8% | ? | . | ? | .
O=C(Cc1ccc(-c2ccccc2)cc1)NC(c1ccccc1)c1ccccc1 | 13.5% | -4.5% | 25.1µM* | -14.4% | -7.2% | 11.8% | ? | 6.0%
Cc1cc(C)c(S(=O)(=O)N(CC(=O)O)C2CCCCC2)c(C)c1 | -0.3% | 2.1% | 0.9% | -4.8% | -1.9% | 9.0% | -1.9% | 15.4%
CC(=O)c1csc(COc2ccccc2)n1 | -0.9% | . | . | 0.0% | . | -6.4% | . | 8.6%
CCCN(C(=O)c1c(CC)noc1C)c1c(N)n(Cc2ccccc2)c(=O)[nH]c1=O | -10.2% | . | . | -3.9% | -3.2% | . | 2.2%[46.1 µM] | 2.1%
CCOC(=O)c1cnn(-c2cccc(Cl)c2)c1C1CCN(C(=O)OC(C)(C)C)CC1 | . | -1.0% | -7.2% | ? | ? | . | 6.2%[46.1 µM] | .
CC(=O)c1ccc(NC(=O)N2C3CCC2CC(O)(c2cccnc2)C3)cc1 (stereo not given) | 1.4% | . | . | 10.4% | 23.3%[46.1 µM] | . | 13.2%[46.1 µM] | 10.2%
O=c1nc(/C=C/c2ccc(Cl)cc2Cl)cc(C(F)(F)F)[nH]1 | -1.5% | . | . | ? | . | -15.5% | . | 4.0%
COc1ccccc1C(C[N+](=O)[O-])c1c(N)n(C)c(=O)n(C)c1=O (stereo not given) | -19.6% | . | . | 31.6µM* | . | -68.4% | . | 35.5µM*
CCCn1cnc2c(=O)oc3ccccc3c21 | 14.7% | -2.5% | -16.3% | 5.1% | 9.8% | -1.1% | 8.0% | 3.5%
COCCNC(=O)c1cnn2c(C(F)F)cc(-c3ccccc3)nc12 | 0.4% | . | . | -7.3% | -13.4% | -0.7% | -7.8%[46.1 µM] | 25.8%
Cc1nn(CC(=O)Nc2ccc(Cl)c(S(=O)(=O)N(C)C)c2)c(C)c1[N+](=O)[O-] | 7.4% | -1.4% | -2.7% | -26.6% | ? | -12.8% | ? | .
Cc1cccc(C2CN(C)CCc3c2cc(O)c(O)c3Cl)c1 (stereo not given) | . | -4.0% | -2.2% | -18.8% | ? | -1.4% | ? | 0.3%[18.4 µM]
Cc1cc(C)c2cc(C(=O)N3CCC(Cc4ccccc4)CC3)[nH]c2c1 | -2.5% | . | . | -16.0% | -11.5% | -4.3% | ? | -2.7%

Four compounds drawn at random from the list so far, as already listed:
SMILES | SARS PLP yeast | Cruzain inh Det | Cruzain inh noDet | StopGo reporter | LASV entry inh | NS1 function inh | Marburg entry inh | RE007 growth inh
Cc1cccc(C2CN(C)CCc3c2cc(O)c(O)c3Cl)c1 (stereo not given) | . | -4.0% | -2.2% | -18.8% | ? | -1.4% | ? | 0.3%[18.4 µM]
Cc1cc(C)c2cc(C(=O)N3CCC(Cc4ccccc4)CC3)[nH]c2c1 | -2.5% | . | . | -16.0% | -11.5% | -4.3% | ? | -2.7%
Cc1nn(CC(=O)Nc2ccc(Cl)c(S(=O)(=O)N(C)C)c2)c(C)c1[N+](=O)[O-] | 7.4% | -1.4% | -2.7% | -26.6% | ? | -12.8% | ? | .
COc1ccccc1C(C[N+](=O)[O-])c1c(N)n(C)c(=O)n(C)c1=O (stereo not given) | -19.6% | . | . | 31.6µM* | . | -68.4% | . | 35.5µM*

Next section:
SMILES | SARS PLP yeast | Cruzain inh Det | Cruzain inh noDet | StopGo reporter | LASV entry inh | NS1 function inh | Marburg entry inh | RE007 growth inh
Cc1ccc(C(=O)COC(=O)c2cccc(NC(=O)c3ccc(Br)cc3)c2)cc1 | . | -2.4% | 9.4% | ? | 2.8%[46.1 µM] | . | 25.8%[46.1 µM] | .
Cc1cc(N2CCN(C)CC2)nc2ccc(NC(=O)c3ccc4c(c3)OCO4)cc12 | -7.6% | -7.9% | -4.0% | 20.5% | 16.4µM* | 1.4% | 4.11µM* | 3.1%
COc1ccccc1-c1nnc(NC(=O)OCC(C)C)s1 | -5.3% | 4.6% | -26.1% | -5.2% | -20.5% | -7.7% | 1.8% | 3.6%
CCOc1ccc(C(C)=O)cc1CN1C(=O)NC2(CCCCCC2)C1=O | 1.7% | . | . | 3.4% | 9.0%[46.1 µM] | 10.2% | ? | 9.0%
C/C(CC(=O)Nc1ccc(C)c(Cl)c1)=N\NC(=O)Cc1cnc(N)s1 | -0.4% | . | . | -0.9% | -0.9% | 1.7% | 5.1% | 3.0%
COCCNC(=O)[C@@]1(Cc2ccccc2)C=C[C@@H](C)N1C(C)=O | -2.7% | -0.6%&5.8% | -0.4%&-4.5% | -17.0% | ? | 5.0% | 17.6% | -12.6%
S=C(NCC(c1ccco1)N1CCCC1)Nc1ccccc1 (stereo not given) | -3.9% | . | . | -11.5% | -3.4%[46.1 µM] | . | -7.3%[46.1 µM] | -7.3%
O=C(CC(=O)N/N=C/c1c(F)cccc1Cl)NCCc1ccccc1 | -5.8% | . | . | -6.4% | . | -1.2% | . | -3.5%
Cc1ccc(NC(=O)COC(=O)CN2C(=O)C3CCCCC3C2=O)cc1S(=O)(=O)N1CCOCC1 (stereo not given) | 6.9% | -0.3% | 18.1% | 0.0% | 18.2% | -18.4% | 19.6% | 21.1%
Cc1cc(S(=O)(=O)N2CCN=C2c2ccccc2)ccc1F | 11.4% | 5.9% | 12.1% | 8.2% | 21.2% | -12.8% | 4.9% | 1.3%
CCOC(=O)N1CCN(C(=O)c2ccc3nc(-c4ccccc4)c(-c4ccccc4)nc3c2)CC1 | -4.5% | . | . | 0.0% | . | -3.1% | . | 1.6%
Cc1ccc(C(=O)c2cn(Cc3ccccc3)c3ccccc3c2=O)cc1 | . | -4.1% | -1.9% | -22.6% | -23.0%[46.1 µM] | . | -10.7%[46.1 µM] | .
COc1ccccc1C(=O)OCC(=O)NC(C)CCc1ccccc1 (stereo not given) | -1.7% | . | . | -3.0% | -6.1%[46.1 µM] | -4.4% | 2.4%[46.1 µM] | 14.7%
Cc1nc2ccccc2nc1Nc1cccc(Cl)c1 | -4.0% | . | . | -7.6% | . | -4.8% | . | -20.3%
C=CCN1C(=O)c2ccccc2Sc2ccc(C(=O)NCC(OC)OC)cc21 | -2.2% | . | . | -23.6% | . | -6.0% | . | -7.4%
COc1ccc(OC)c(N(CC(=O)NCc2ccccc2)S(=O)(=O)c2ccccc2)c1 | . | 1.4% | 4.4% | 27.5% | -4.4%[46.1 µM] | . | ? | .
C=CCn1c(SCC(=O)c2cccs2)nc2sc(C)cc2c1=O | 0.2% | -5.3% | 7.3% | 31.6µM* | ? | -0.4% | -27.1%[46.1 µM] | 1.1%
C/C(=N\NC(N)=S)C1C2C3CC4C5CC(C42)C1C53 (stereo not given) | -12.1% | . | . | -7.9% | -9.6%[46.1 µM] | . | ? | -6.0%
O=C(CSc1nnc(-c2ccccc2)n1-c1ccc(Cl)cc1)N/N=C/c1ccccc1C(=O)O | 0.6% | . | . | -5.2% | . | 17.6% | . | -1.3%
COc1cc(CNc2ncn[nH]2)ccc1OCC(=O)NC(C)(C)C | 0.6% | . | . | 6.0% | 1.5% | -1.4% | -9.3% | -0.5%
CC(C)[C@H](NC(N)=O)C(=O)Nc1cccc(S(=O)(=O)N2CCOCC2)c1 | -0.5% | . | . | 2.6% | ? | 8.5% | 0.3%[46.1 µM] | -1.1%
CC(=O)OC1CCC2(C)C(CC(=O)C3C2CCC2(C)C(OC(C)=O)CCC32)C1 (stereo not given) | . | . | . | -29.7% | 1.2% | . | 3.2% | -0.6%
O=C(c1ccccc1NS(=O)(=O)c1ccc(Br)s1)N1CCOCC1 | 5.0% | 6.2% | -4.8% | 14.5% | 22.0% | -2.5% | 2.6% | 17.0%
Cc1c([N+](=O)[O-])cc(C(=O)Oc2ccc(Br)cc2C(=S)N2CCCCC2)cc1[N+](=O)[O-] | -12.5% | -1.5% | 25.1µM* | 37.2%[activator] | -0.5% | -6.0% | ? | 1.3%
CCc1sc(C(=O)Nc2cccc(C(C)=O)c2)cc1C | -65.6% | -3.2% | -13.1% | 18.5% | 5.0% | -9.5% | -22.1% | -10.6%
Cc1cccc(N2C(=O)CC(N3CCN(c4cccc(C(F)(F)F)c4)CC3)C2=O)c1 (stereo not given) | -10.4% | -2.0% | ? | -17.3% | -22.6% | 1.3% | 24.6%&24.6% | -13.4%
CC(C)c1ccc(S(=O)(=O)N(C)C2(C)CCS(=O)(=O)C2)cc1 (stereo not given) | 2.0% | . | . | -1.9% | ? | . | 0.0%[46.1 µM] | -8.7%
COc1ccccc1N1C(=O)Cc2ccccc2C1=O | 3.5% | . | . | -1.8% | 11.3%[46.1 µM] | 23.1% | ? | -0.7%
CCNC(=O)CC1C(=O)N(c2ccc(F)cc2)C(=O)N1CCc1ccc(OC)cc1 (stereo not given) | -7.1% | 3.1% | -3.5% | 2.9% | -2.9% | -0.1% | -14.0% | 9.2%
CNC(=O)COC(=O)c1ccc(-c2nc3ccccc3s2)s1 | 11.9% | -5.1% | -0.7% | -48.5% | ? | -3.4% | ? | -13.9%
CC(=O)N1CCN(c2ccc(NC(=O)c3ccc(Br)o3)cc2Cl)CC1 | -0.7% | . | . | 18.3% | . | -7.9% | . | 3.2%
Cc1ccc(S(=O)(=O)CCC(=O)Oc2ccc3c(C)cc(=O)oc3c2)cc1 | 0.8% | . | . | -3.2% | 5.8% | . | -4.9% | -25.3%
Cc1cc(NC(=O)CCC(=O)N(CC(=O)NC2CCCC2)c2ccc3c(c2)OCCO3)no1 | 2.0% | 4.1% | -16.4% | 5.2% | 23.6% | 4.5% | 0.6% | -1.7%
